RGS4 pot = RGS4 potentiators or activators, primary screen, cell-based, HEK293 M3R inducible RGS4, calcium flux | AID 463111, 2010 | carbachol calcium flux Fluo4; active compounds read low | hit rate 0.92% among 310,000 | B-score at 10 µM;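 active = B-score of the integrated calcium signal more than 4 SD below the library mean, with starting fluorescence not abnormally high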;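 note: negative B-score means reduced calcium response which marks RGS4 activation or potentiation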
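Assay system: HEK293 FlpIn-TREx cells, stable M3R, doxycycline-inducible RGS4 / Probe or stimulus: carbachol, ECmax concentration / Times: overnight RGS4 induction, 30 min dye load 37 °C, 20 min compound RT / Signal: kinetic calcium fluorescence imaging with Fluo4-AM dye, 2 µM / Measure: Agonist-evoked peak-minus-minimum fluorescence over baseline, integrated ratio, B score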
HDAC3 inh = HDAC3 deacetylase inhibitors, primary screen, biochemical, fluorescence, cell-free homogeneous; AID 2718, 2010; Histone deacetylase 3 (Homo sapiens), O15379; recombinant HDAC3, fluorogenic peptide/trypsin coupled; inhibition, % at 8.3 µM; hit rate 0.15% among 320,000; in the data active = inhibition above about 26%, passing the limit was not always enough
RGS4 inh = RGS4 inhibitors, primary screen, cell-based, HEK293 M3R inducible RGS4, calcium flux; Regulator of G-protein signaling 4 (Homo sapiens), P49798; Fluo-4 calcium flux; active compounds read high; triggered by carbachol at its EC20; B-score at 10 µM; hit rate 0.45% among 310,000;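 active = B-score, a plate-corrected calcium signal, over three deviations above library mean, with baseline fluorescence within five deviations of library mean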;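 note: RGS4 expression induced by doxycycline in cells with stable M3 receptor; B-score is computed from the integrated fluorescence ratio over baseline after carbachol; higher B-score means a larger calcium signal and so more RGS4 inhibition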
KCNK3 inh = human KCNK3 channel inhibitors, primary screen, CHO cells, FluxOR thallium flux, B-score; hit rate 0.84% among 340,000; FluxOR fluorescence; active compounds read low; AID 602410, 2012; B-score at 10 µM;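 active = B-score under library mean minus 4 SD, starting fluorescence ratio at most library mean plus 5 SD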;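 note: more negative B-score means stronger inhibition of thallium flux through KCNK3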
ANO1 activ = TMEM16A chloride channel activators or potentiators, primary screen, cell-based, HTS. HEK293 TMEM16A/YFP-H148Q/I152L, iodide quench fluorescence; active compounds read low. B-score at 10 µM. hit rate 0.3% among 340,000;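 active = fluorescence-ratio B-score plate-corrected deviation score at least 3 library SD below zero, with starting fluorescence score within 5 deviations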;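 note: channel opened by trigger with iodide after compound preincubation; score built on the fluorescence ratio of max minus min over baseline; more negative score means more quench and so TMEM16A activation or potentiation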
Target sequence (Q8BHY3 whole entry, looked up): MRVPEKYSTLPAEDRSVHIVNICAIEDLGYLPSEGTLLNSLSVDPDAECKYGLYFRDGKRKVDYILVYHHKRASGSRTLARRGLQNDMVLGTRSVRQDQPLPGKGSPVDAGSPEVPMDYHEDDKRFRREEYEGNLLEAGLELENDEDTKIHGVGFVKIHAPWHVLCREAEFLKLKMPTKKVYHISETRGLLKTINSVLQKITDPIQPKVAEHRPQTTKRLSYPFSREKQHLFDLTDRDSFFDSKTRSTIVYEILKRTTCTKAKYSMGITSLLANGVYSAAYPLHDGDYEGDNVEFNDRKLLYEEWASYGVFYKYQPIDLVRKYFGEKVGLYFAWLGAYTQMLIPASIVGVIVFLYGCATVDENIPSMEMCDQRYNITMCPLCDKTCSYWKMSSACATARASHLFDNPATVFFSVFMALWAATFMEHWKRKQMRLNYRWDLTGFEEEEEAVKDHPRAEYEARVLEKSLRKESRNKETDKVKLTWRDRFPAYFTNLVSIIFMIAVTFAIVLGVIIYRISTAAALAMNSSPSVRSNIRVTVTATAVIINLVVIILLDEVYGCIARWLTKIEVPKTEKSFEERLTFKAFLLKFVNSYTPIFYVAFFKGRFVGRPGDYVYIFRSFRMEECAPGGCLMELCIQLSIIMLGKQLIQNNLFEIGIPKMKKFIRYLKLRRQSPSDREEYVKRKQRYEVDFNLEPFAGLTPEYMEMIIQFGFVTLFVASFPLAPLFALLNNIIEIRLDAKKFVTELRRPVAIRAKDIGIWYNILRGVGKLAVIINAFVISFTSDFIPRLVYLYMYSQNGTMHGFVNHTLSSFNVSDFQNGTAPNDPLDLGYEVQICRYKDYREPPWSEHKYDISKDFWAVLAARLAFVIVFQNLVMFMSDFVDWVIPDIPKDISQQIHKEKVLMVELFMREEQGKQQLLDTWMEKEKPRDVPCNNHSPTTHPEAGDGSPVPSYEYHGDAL
TMEM16A inh = TMEM16A chloride channel inhibitors, primary screen, cell-based, HTS | normalized B-score (activity score, 25-100; higher = stronger inhibition) at 10 µM | AID 588511, 2011 | hit rate 1.2% among 310,000 | HEK293 TMEM16A/YFP iodide influx fluorescence, ionomycin | Anoctamin-1 (Mus musculus), Q8BHY3;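 active = ratio plate-corrected score three or more library SD toward inhibition, starting fluorescence score within five deviations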;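 note: score derived from kinetic fluorescence span divided by baseline fluorescence per well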
SKKanGAS inh = S. pyogenes SKKanGAS growth inhibitors in kanamycin, primary screen, streptokinase expression inhibitor project, SKKanGAS strain, BacTiter-Glo luminescence; 6 h; inhibition, % at 7.5 µM; hit rate 1.3% among 300,000;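 active = mean replicate score, as percent of positive control median, at least 50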;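 note: strain carries kanamycin resistance gene driven by streptokinase promoter and grows in 40 µg/ml kanamycin; loss of luminescence reflects streptokinase promoter inhibition or plain growth inhibition; 0% = median of DMSO wells and 100% = positive control at its reference dose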
Starred values were filed as active, the others as inactive; i = inactive; nt = no result given; & = joins results of further samples. These rows are one share of the data. The share of hits here may be higher or lower than overall.

Codes – A = RGS4 pot; B = HDAC3 inh; C = RGS4 inh; D = KCNK3 inh; E = ANO1 activ; F = TMEM16A inh; G = SKKanGAS inh
1) CCCCOc1ccc(CC2C(=O)N(C)C(=O)N(C)C2=O)cc1
  A: i | B: -6 | C: i | D: i | E: i | F: i | G: -4

2) COc1ccc(CN2CCNCC2)c(OC)c1OC
  A: i | B: 0&9 | C: i | D: i | E: i | F: i | G: -3

3) CN(C)[C@@H]1C(=O)C(C(N)=O)=C(O)[C@@]2(O)C(=O)C3=C(O)c4c(O)cccc4[C@@](C)(O)[C@H]3C[C@@H]12
  A: i | B: 2 | C: i | D: nt | E: nt | F: i | G: 1

4) O=C1/C(=C\c2cc3c(cc2Br)OCO3)N2CCC1CC2
  A: i | B: 1 | C: i | D: i | E: i | F: i | G: -8

5) Cc1cccc(NC(=O)C(C)N2CC=C(c3ccccc3)CC2)c1 (stereo unspecified)
  A: i | B: -6 | C: i | D: i | E: i | F: i | G: 1

6) C[C@]12CC[C@@H](O)C[C@H]1CC[C@@H]1[C@@H]2CC[C@]2(C)C(=O)CC[C@@H]12
  A: i | B: 6 | C: i | D: i | E: i | F: i | G: 2

7) CCC(C)(C)n1nnnc1C(c1cccs1)N1CC=C(c2ccc(F)cc2)CC1 (stereo unspecified)
  A: i | B: -4 | C: i | D: i | E: i | F: i | G: -3

8) C[C@@H]1CC[C@H]2[C@@H](C)C(=O)O[C@@H]3O[C@@]4(C)CC[C@@H]1[C@]32OO4
  A: i | B: -5 | C: i | D: i | E: i | F: i | G: 1

9) CCN1CCN(CC(=O)c2c(C)n(Cc3ccccc3)c3ccc(OC)cc23)CC1
  A: i | B: 2 | C: i | D: i | E: i | F: i | G: -2

10) COC(=O)C1C(OC(=O)c2ccccc2)CC2CCC1N2C (stereo unspecified)
  A: i | B: -1 | C: i | D: i | E: i | F: i | G: 0

Some of these compounds in order of molecular weight, falling:
Codes – A = RGS4 pot; B = HDAC3 inh; C = RGS4 inh; D = KCNK3 inh; E = ANO1 activ; F = TMEM16A inh; G = SKKanGAS inh
3) CN(C)[C@@H]1C(=O)C(C(N)=O)=C(O)[C@@]2(O)C(=O)C3=C(O)c4c(O)cccc4[C@@](C)(O)[C@H]3C[C@@H]12
  A: i | B: 2 | C: i | D: nt | E: nt | F: i | G: 1

7) CCC(C)(C)n1nnnc1C(c1cccs1)N1CC=C(c2ccc(F)cc2)CC1 (stereo unspecified)
  A: i | B: -4 | C: i | D: i | E: i | F: i | G: -3

4) O=C1/C(=C\c2cc3c(cc2Br)OCO3)N2CCC1CC2
  A: i | B: 1 | C: i | D: i | E: i | F: i | G: -8

1) CCCCOc1ccc(CC2C(=O)N(C)C(=O)N(C)C2=O)cc1
  A: i | B: -6 | C: i | D: i | E: i | F: i | G: -4

10) COC(=O)C1C(OC(=O)c2ccccc2)CC2CCC1N2C (stereo unspecified)
  A: i | B: -1 | C: i | D: i | E: i | F: i | G: 0

8) C[C@@H]1CC[C@H]2[C@@H](C)C(=O)O[C@@H]3O[C@@]4(C)CC[C@@H]1[C@]32OO4
  A: i | B: -5 | C: i | D: i | E: i | F: i | G: 1

The listing continues:
Codes – A = RGS4 pot; B = HDAC3 inh; C = RGS4 inh; D = KCNK3 inh; E = ANO1 activ; F = TMEM16A inh; G = SKKanGAS inh
11) Cc1cccc(N2CCN(CCc3ccccc3)CC2)c1C
  A: i | B: -7 | C: i | D: i | E: i | F: i | G: 9

12) C#C[C@]1(O)CC[C@H]2[C@@H]3CCC4=CC(=O)CC[C@]4(C)[C@H]3CC[C@@]21C
  A: i | B: -8 | C: i | D: i | E: i | F: i | G: 2

13) Clc1ccc(COC(Cn2ccnc2)c2ccc(Cl)cc2Cl)cc1 (stereo unspecified)
  A: i | B: 2 | C: i | D: i | E: i | F: i | G: 74*

14) Cc1ccc(O)c(C(=O)c2cc(C(=O)NCc3ccccc3)c(=O)n(Cc3ccccc3)c2)c1
  A: i | B: nt | C: i | D: i | E: i | F: i | G: -12
